# From PubChem BioAssay
# CSC inhib – cancer stem cell inhibition; cancer stem cell-like cells viability, luminescence; inhibition, % at 7.5 µM; 300,000 compounds, 1.1% hits;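 active means mean at 75% or more and at least half the replicates too; tested in HMLE shEcad cells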;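 further: 0% = median of negative and 100% = median of positive control wells; the first replicate is given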
# HIV Env fusion – blocks HIV Env-driven cell-cell fusion; AID 651610; HeLa-JRFL Env/CEM21 cell fusion, luciferase; inhibition, % at 12.3 µM; 360,000 compounds, 1.1% hits;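 active means mean replicate inhibition score of at least 50 and every replicate individually at or above 50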;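 further: 0% = plate neutral controls and 100% = maraviroc near 300 nM; one replicate is shown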
# eIF4H FP inh – inhibitors of RNA binding by human eIF4H | AID 2012 | Q15056 | inhibition, % at 35 µM | eIF4H fluorescence polarization binding assay | 290,000 compounds, 0.94% hits;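 active means 50% or more with normal probe brightness, or confirmed in later tests; about a fifth of its hits are not listed in these tables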;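 further: calls also rest on retests at 20 µM and on dose response follow-up; 0% = protein and probe with vehicle and 100% = probe without protein; strong numbers were not always called active; many hits fall short of the cut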
# MT1-MMP act inh – blocks activation of human MT1-MMP | HT1080 RFP-PRO-GFP cells, GFP/RFP ratio fluorescence, overnight; percent of plate control window, DMSO zero | 360,000 compounds, 0.061% hits | GFP/RFP ratio change, % at 20 µM | AID 651647 | P50281;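 active means GFP/RFP ratio change of at least 30% with cell ATP level not reduced by more than half and red fluorescence within 50% of control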; further: strong numbers were not always called active
#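 Material: RFP-PRO-GFP reporter HT1080 cells. Dosing: single-point 20 µM compound, 1% DMSO. Controls: DMSO and RFP-L50D-GFP cell wells. Timing: cells overnight before dosing, compound overnight, 37 °C, 5% CO2. Measure: GFP/RFP fluorescence ratio.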
# Rce1 inh – yeast Ras-converting enzyme inhibition. yeast membranes, quenched prenylated peptide cleavage fluorescence. calls only. Q03530. 290,000 compounds, 0.27% hits. AID 2563;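 active means fall in fluorescence gain of 50% or more versus controls, with final raw signal at or below 3038400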;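 further: plate controls were neutral control wells for no effect and wells lacking membranes for full effect; tested at 10 µM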
# PABP FP inh – PABP-poly(A) binding inhibition; P11940; PABP-poly(A) RNA binding, fluorescence polarization; inhibition, % at 35 µM; 290,000 compounds, 1% hits;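 active means 50% or more with normal probe brightness, or confirmed in later tests; about a fifth of its hits are not listed in these tables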;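 further: calls also rest on retests at 20 µM and on dose response follow-up; controls were probe without protein and protein plus probe with vehicle; some compounds called inactive have numbers as strong as hits; many hits fall short of the cut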
# Target sequence (P11940 whole entry, looked up): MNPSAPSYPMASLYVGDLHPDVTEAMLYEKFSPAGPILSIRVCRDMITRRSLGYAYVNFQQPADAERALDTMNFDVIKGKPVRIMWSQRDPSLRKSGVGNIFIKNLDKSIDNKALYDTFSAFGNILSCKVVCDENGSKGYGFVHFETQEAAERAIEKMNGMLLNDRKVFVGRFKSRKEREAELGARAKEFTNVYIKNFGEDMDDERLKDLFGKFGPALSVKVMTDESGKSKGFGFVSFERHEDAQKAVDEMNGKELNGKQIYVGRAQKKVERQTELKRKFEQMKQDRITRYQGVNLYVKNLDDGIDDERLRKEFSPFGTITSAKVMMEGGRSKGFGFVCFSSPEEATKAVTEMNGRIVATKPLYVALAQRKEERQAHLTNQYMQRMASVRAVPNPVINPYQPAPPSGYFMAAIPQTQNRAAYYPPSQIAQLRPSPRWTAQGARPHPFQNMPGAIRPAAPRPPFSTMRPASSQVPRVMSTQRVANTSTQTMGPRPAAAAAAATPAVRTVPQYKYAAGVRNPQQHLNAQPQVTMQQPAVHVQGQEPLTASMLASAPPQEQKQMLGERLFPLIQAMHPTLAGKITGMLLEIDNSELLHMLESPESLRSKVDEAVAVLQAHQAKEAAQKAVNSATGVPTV
# Yeast UUG start – yeast start codon fidelity modulation | S. cerevisiae UUG-firefly luciferase reporter, luminescence/redox ratio | activity score, % at 18.7 µM | 350,000 compounds, 0.13% hits;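 active means replicate mean at a twofold rise or more, about +100% in these data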;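 further: firefly luciferase made from a UUG start codon reports start codon fidelity; reporter light over untreated wells divided by growth signal over untreated wells; some hits fall short of that in this replicate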
# eIF4H FP inh retest – also measured in eIF4H FP inh; calls as there; inhibition, %; compound at 20 µM; confirmation average;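 mean of two retest wells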
# PABP FP inh retest – second read-out of PABP FP inh, no call of its own (marks repeat the call); inhibition, %; compound at 20 µM; confirmation repeats;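 mean of two retest wells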
# MT1-MMP act inh RFP – further read-out of MT1-MMP act inh, marked with its call; RFP signal change, %; measured here: RFP expression control read;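 0 = vehicle wells; hits needed this value within 50% of zero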
# * marks the source's active call; other numbers are inactive results; i = inactive; . = no result given; & = joins results of further samples. Rows are unselected, and some 3% of all compounds hit somewhere here.
SMILES,CSC inhib,HIV Env fusion,eIF4H FP inh,MT1-MMP act inh,MT1-MMP act inh RFP,Rce1 inh,PABP FP inh,Yeast UUG start,others
O=S(=O)(c1ccc2nc(N3CCN(c4ccccc4F)CC3)ccc2c1)N1CCCCC1,-13.1,1.2,-9.6,4.6,0.0,i,-8.4,-10.7,
O=C(O)/C=C/c1nc(-c2ccccc2)n2ccccc12,.,-31.0,57.6,-1.4,9.7,i,-0.3,.,eIF4H FP inh retest=-10.0;PABP FP inh retest=-2.8
O=S(=O)(Nc1ccc2c(c1)OCO2)c1cccc(Br)c1,7.2,0.7,.,-3.3,-0.3,.,.,-0.7,
CCO[C@@H]1OC(C(=O)O)=C[C@H](C)[C@H]1CCCO,-19.9,-26.0,34.3,2.9,5.8,i,52.3*,-7.1,
Cc1ccc(S(=O)(=O)CC(=O)Nc2sc(C)c(C)c2C(N)=O)cc1,9.4,8.4,.,-2.4,-0.8,i,.,-6.1,
CCOC(=O)C1CCN(C(=O)COC(=O)COc2ccc(Cl)cc2)CC1,-7.7,1.8,1.1,-3.1,0.8,i,1.9,3.5,
CN=C1S/C(=C\c2cn(CC(=O)OC)c3ccccc23)C(=O)N1C,-6.3,17.5,-4.4,-14.0,4.4,.,35.0,.,
CCCCN(C)Cc1c(C)[nH]c2c(ccc3ccccc32)c1=O,4.1,5.6,-0.8,1.8,-2.8,i,-7.7,-15.3,
O=c1ccc(NS(=O)(=O)c2ccccc2Cl)cn1Cc1ccc(Cl)c(Cl)c1,-1.8,2.5,3.6,-2.4,5.1,i,9.2,-11.3,
CCOC(=O)C1(C)CCN1C(=O)c1cc(C)oc1C (centres undefined),.,7.3,.,0.2,0.4,.,.,1.4,
Cc1cc(C)nc(/N=C(\N)Nc2ccc(C)c([N+](=O)[O-])c2)n1,-1.7,-29.8,-6.1,2.8,-0.2,i,-3.2,-2.7,
Cc1cccc(CNC(=O)c2sc(=O)n(Cc3ccc(S(C)(=O)=O)cc3)c2C)c1,.,7.3,.,3.5,-0.4,.,.,-16.5,

# The list goes on; the last 2 above are carried over.
SMILES,CSC inhib,HIV Env fusion,eIF4H FP inh,MT1-MMP act inh,MT1-MMP act inh RFP,Rce1 inh,PABP FP inh,Yeast UUG start,others
Cc1cc(C)nc(/N=C(\N)Nc2ccc(C)c([N+](=O)[O-])c2)n1,-1.7,-29.8,-6.1,2.8,-0.2,i,-3.2,-2.7,
Cc1cccc(CNC(=O)c2sc(=O)n(Cc3ccc(S(C)(=O)=O)cc3)c2C)c1,.,7.3,.,3.5,-0.4,.,.,-16.5,
Cc1cc(/C=C2/SC(=O)NC2=O)c(C)n1-c1ccc(N2CCOCC2)cc1,.,25.8,39.2,6.5,-4.1,i,-3.2,0.8,
Cc1nc2ccc([N+](=O)[O-])cc2nc1C,-7.4,5.8,10.3,0.5,6.0,i,-4.7,.,
O=C(COC(=O)CNS(=O)(=O)/C=C/c1ccccc1)Nc1cccc2ccccc12,-11.6,-6.0,-5.7,1.4,3.3,i,-2.1,.,
COc1ccccc1NC(=O)N(Cc1ccccc1)c1ccccn1,-6.2,.,-4.9,-6.2,-10.4,i,6.9,-13.0,
O=C(O)c1ccccc1C(=O)NNC(=O)C(c1ccccc1)c1ccccc1,4.4,-0.6,-12.2,1.5,7.2,i,2.3,-2.2,
O=C(N/N=C/c1cc(Cl)cc([N+](=O)[O-])c1O)C1CC1,8.8,10.0,0.3,-1.6,-1.7,i,-1.4,56.8,
CN1CCSc2ccc(C(=O)NCc3cccc(F)c3)cc21,-2.3,-17.7,-7.2,0.4,0.1,i,-8.1,-7.0,
O=C(CCNS(=O)(=O)c1ccccc1F)N1CCN(C(c2ccccc2)c2ccccc2)CC1,-11.4,.,.,-15.5,-0.7,i,.,-0.6,
Cc1ccc(S(=O)(=O)N(CC(=O)NCCSCc2ccco2)c2ccc(F)cc2)cc1,-4.7,.,-0.1,.,.,i,0.9,.,
Cc1cc(C(F)(F)F)nc(SCC(=O)Nc2c(C)n(C)n(-c3ccccc3)c2=O)n1,-1.6,-6.1,-17.7,-2.2,0.3,i,0.6,-7.9,
CCn1c(=O)c2cc(C(=O)Nc3cc(C)on3)sc2c2ccccc21,1.3,1.2,1.7,6.6,3.7,i,-5.4,-15.8,
CCN(CC(=O)Nc1ccc2c(c1)OCCO2)S(=O)(=O)c1ccc(C)cc1,-13.2,-22.0,6.0,4.8,3.8,i,-0.8,-22.3,
Cc1[nH]nc2c1/C(=N/O)CC(c1ccccc1)C2 (centres undefined),2.3,-9.5,6.4,-2.2,-1.7,i,0.7,-9.6,
Cc1cc(C)c(S(=O)(=O)N2CCN(CCO)CC2)c(C)c1,-16.7,-32.5,-0.5,1.1,3.3,i,1.6,-12.9,
Oc1ccc(Cl)cc1C1=Nc2ccccc2N=C(c2ccco2)C1,29.1,.,17.2,-15.8,-12.9,i,13.2,-28.7,
CC1(C(=O)NS(=O)(=O)c2cccc(C#N)c2)CCN1C(=O)CCc1ccccc1 (centres undefined),.,i,.,1.8,5.0,.,.,15.9,
Cc1cc(=O)n2[nH]c(-c3ccc(C(C)(C)C)cc3)cc2n1,6.7,-3.0,6.9&7.7,34.4*,-7.3*,i,6.6&7.6,-7.1,
COc1cc(C2NC(=O)CS2)cc(OC)c1OC (centres undefined),-13.3,.,-6.7,-0.8,3.6,i,-3.0,.,
CCN1C(=O)[C@@H]2[C@@H](c3ccc(-c4ccc(Cl)c(Cl)c4)c(OC)c3)N3CCC[C@@]3(C(=O)OC)[C@@H]2C1=O,26.6,-1.1,.,-6.8,-19.3,.,.,-19.1,
Cc1ccc(-c2c(C(=O)N/N=C/c3ccoc3)nnn2-c2nonc2N)cc1,-14.1,0.5,.,-0.7,2.3,i,.,-19.2,
COC(=O)c1cn(CC(=O)NCc2cccs2)c2ccccc12,.,-69.0,-7.6,2.8,-4.2,i,-12.3,-2.9,
CN1CCc2c(sc(N)c2C(N)=O)C1,0.9,-16.1,38.8,-6.9,4.1,i,-0.9,-4.8,
Cc1cccc(CSCCNC(=O)Nc2ccccc2)c1,.,3.7,3.6,2.1,-1.2,i,-10.3,.,
Cc1ccccc1NC(=O)CCC(=O)OCC(=O)c1cccc([N+](=O)[O-])c1,-6.1,11.0,-2.2,1.3,1.7,i,-5.3,-3.6,
COCCN(CCOC)S(=O)(=O)c1ccc(C(=O)Nc2nc(-c3ccccc3)c(C(=O)c3ccccc3)s2)cc1,32.4,-9.6,9.3,6.7,-1.8,i,8.0,-9.8,
COC(=O)C(CC(C)C)NC(=O)C(Cc1ccccc1)NC(=O)C1CCCN1C(=O)OC(C)(C)C (centres undefined),-7.6,15.0,-1.4,2.4,1.2,i,-4.8,-4.0,
Cc1oc(-c2cccc(Cl)c2)nc1CN(C)C1CCOC1 (centres undefined),.,-16.9,-7.2,-1.5,-1.3,i,2.8,.,
COc1ccc(-c2ccc(CCC(=O)O)n2NC(=O)c2cccs2)cc1,2.0,.,-1.4,-3.3,0.4,i,12.1,-3.5,
COc1ccc(C(=O)Nc2cccc(C(C)=O)c2)cc1OC,3.6,-84.2,-2.1,1.1,-6.2,i,-2.3,2.2,
Cc1ccc2nc(NCCCO)[nH]c2c1,-11.3,-102.2,.,3.6,4.0,i,.,-15.2,
CCCCn1c(N)c(N(CCOC)C(=O)COc2ccc(Cl)cc2)c(=O)[nH]c1=O,-1.3,2.7,-3.9,-2.6,0.4,i,-4.4,-11.9,
CCC(C)c1ccc(O)c(NC(=O)c2cccnc2)c1 (centres undefined),6.3,.,6.3,-7.2,-0.1,i,2.6,-10.2,
CCC/C=C1/CCCOC(C(=O)NCCN2CCOCC2)(C(F)(F)F)C1 (centres undefined),0.6,12.6,.,-3.6,-2.7,i,.,-18.3,
COc1ccc(C(CC(=O)NC(C)(C)C)n2cccc2)cc1 (centres undefined),-2.6,.,-17.3,.,.,i,-15.6,.,
CCOC(=O)c1c(-c2ccccc2)nc2cc(C)ccn12,4.9,-184.2,2.4,2.2,-2.9,i,-7.1,-25.9,
c1ccc(-c2cc(N3CCOCC3)nc3ccccc23)cc1,1.1,-20.8,-5.6,0.6,-4.6,i,16.9,-14.4,
CC1CCN(C(=S)Nc2cccc(S(=O)(=O)N(C)C)c2)CC1,-13.6,18.6,-1.7,3.1,2.3,i,0.3,-10.3,
CCN1CCN(C(=O)c2ccc3c(Cl)c4c(nc3c2)CCCC4)CC1,1.4,-1.9,-3.4,0.5,-3.7,i,-7.0,1.3,
COc1ccc(-c2nc(CSCC(=O)NCCC3=CCCCC3)c(C)o2)cc1OC,-6.0,-29.5,-1.5,-1.1,-4.4,i,-1.8,.,
Cc1ccc(NC(=O)CCC(=O)NNC(=O)COc2ccccc2)c(C)c1,19.5,-6.0,-4.8,3.2,2.6,i,-3.4,.,
Cc1ncoc1C(=O)N1CCCC(C(=O)Nc2cccc(-c3ccc(F)cc3)c2)C1 (centres undefined),-4.2,2.6,-2.7,-1.3,-5.6,i,7.6,47.9,
Cc1cc(C(=O)COC(=O)c2ccc(Cl)c(S(N)(=O)=O)c2)c(C)n1C1CC1,-5.0,-85.8,.,-0.6,1.8,i,.,-9.5,
COc1ccc([N+](=O)[O-])cc1COc1cc(C)cc2oc(=O)cc(-c3ccccc3)c12,53.4,.,3.7,-10.7,-20.0,i,7.0,-4.1,
CC1(C)c2ssc(=S)c2-c2ccccc2N1C(=O)CSC1=NCCS1,3.1,-29.3,-9.4,-5.4,-9.8,i,-3.2,-8.1,
CC1(C)C2CCC1(CS(=O)(=O)N1CCC(C(=O)O)CC1)C(=O)C2 (centres undefined),-15.5,3.0,-1.4,0.4,-3.9,i,4.9,-10.4,
Cc1nc2scc(C)n2c(=O)c1S(=O)(=O)Nc1ccc(OC(F)(F)F)cc1,-1.8,55.2*,.,3.2,-5.3,i,.,-6.9,
Cn1c(=O)c2c(ncn2CC(=O)Nc2nnc(Cc3ccccc3)s2)n(C)c1=O,.,.,2.5,10.8,2.7,i,6.0,-7.9,
C=CC[C@@H](CC(=O)N[C@H](CO)Cc1ccccc1)C(=O)NCCOC(=O)[C@@H](CC=C)Cc1ccc(F)cc1,.,10.5,.,12.2,-9.4,.,.,11.8,
COc1ccc2nc(NC(=O)C3CSC4(C)CCC(=O)N34)sc2c1 (centres undefined),-5.9,-35.9,.,-8.0,-4.5,i,.,0.9,
COc1ccc(OC)c(CCNC(=O)CS(=O)(=O)Cc2nc(-c3ccccc3C)oc2C)c1,-10.4,17.8,2.1,3.7,-6.2,i,-4.5,-0.4,
O=C(Nc1nnc(-c2ccco2)o1)c1cccc(Cl)c1,18.8,1.7,8.8,0.4,1.6,i,-12.5,.,
Cc1cc2oc(=O)cc(CN(Cc3ccccc3)Cc3ccccc3)c2cc1Cl,.,29.2,.,-0.2,-15.8,.,.,5.6,
O=C(CCCOc1ccc(Cl)cc1Cl)Nc1ccccn1,-1.3,-24.3,2.5,-0.4,-1.7,i,5.8,-14.0,
CC(C)(C)C(=O)CN1CCN(S(=O)(=O)c2ccc(F)cc2)CC1,-16.9,.,-14.9,2.6,8.5,i,7.4,.,
CC(C)(C)c1ccc(S(=O)(=O)N2CCN(CC(=O)NC(=O)NC3CCCCC3)CC2)cc1,9.4,0.3,.,-5.2,-10.2,i,.,2.5,
O=C(Cn1nc(-c2ccc(N3CCOCC3)c([N+](=O)[O-])c2)c2ccccc2c1=O)N1CCCCC1,-13.7,15.5,-9.2,-1.1,-2.6,i,-3.2,0.6,
